Source: PubChem BioAssay (ICCB-Longwood Screening Facility, Harvard Medical School)
AID504770 = growth inhibitors of E. coli YBA685 in a screen for V. cholerae RctB (chromosome II replication) inhibitors | E. coli YBA685 rctB-dependent plasmid, OD600 growth, 3 h; active compounds read low | z-score (concentration not given with the values) | 130,000 tested, 0.27% active;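 active = z-score under -2 on both plates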;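 note: wells of about 30 µL received 100 nL stock; score is relative to mean and SD of the test wells; the first replicate is given; strong numbers were not always called active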
CapD inh = inhibitors of Bacillus anthracis CapD enzyme. z-score (concentration not given with the values). 140,000 tested, 0.23% active. AID 492967. purified CapD enzyme, fluorescence intensity read-out; active compounds read low; some hits fall short of the stated cut;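 active = z-score under -4 in either of two replicates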;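 note: stock transfer was 100 nL into about 40 µL; score is relative to mean and spread of the plate; one replicate is shown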
* = called active by the depositor; / = not tested or not shown; & = joins results of further samples. Not all compounds are listed. The share of hits here may be higher or lower than overall.

Values run as follows: AID504770 | CapD inh
- CC1NCc2c(sc3c2CCCC3)-n2cccc21 (centres undefined)
→ 0.85 | 0.14
- Clc1ccc(-c2nnsc2Sc2ccc(Br)cc2)cc1
→ / | 0.22
- Brc1ccc(-c2cc(-c3ccccc3)no2)cc1
→ -0.15 | /
- COc1ccc2nc(NC(=O)c3sc4ncn(CC(=O)Nc5ccccc5OC)c(=O)c4c3C)sc2c1
→ / | -0.95
- CCCN(CCC)S(=O)(=O)c1ccc(Br)cc1
→ -0.35 | -0.095
- Cc1ccc(Cc2cnc(I)c(O)c2)cc1
→ 0.05 | /
- Cc1nc(N)sc1C(C)(C)C
→ -1 | /
- CC1CC(C)CN(S(=O)(=O)c2ccc(F)c(C(=O)N3CC(=O)N(CCc4ccccc4)C(=O)C3)c2)C1 (centres undefined)
→ / | -0.58
- CC(=O)c1ccc(C(F)(F)F)cc1[N+](=O)[O-]
→ / | 0.2
- COc1ccccc1N1CCN(C(=O)C2CCCCC2)CC1
→ -1.9 | 1.5

One compound at a time (already shown). Order of values: AID504770	CapD inh
CCCN(CCC)S(=O)(=O)c1ccc(Br)cc1 is listed with -0.35	-0.095
Clc1ccc(-c2nnsc2Sc2ccc(Br)cc2)cc1 is listed with /	0.22
Brc1ccc(-c2cc(-c3ccccc3)no2)cc1 is listed with -0.15	/
CC(=O)c1ccc(C(F)(F)F)cc1[N+](=O)[O-] is listed with /	0.2
COc1ccc2nc(NC(=O)c3sc4ncn(CC(=O)Nc5ccccc5OC)c(=O)c4c3C)sc2c1 is listed with /	-0.95

Next section:
Values run as follows: AID504770 | CapD inh
- O=C(Nc1ccc(Cl)cc1)/C(=C\c1cccs1)c1ccsc1
→ 0.05 | -1.1
- O=C(O)/C(=C/c1ccsc1)c1cc(F)cc(F)c1
→ -1.1 | -0.35
- COc1ccc(NC(=O)c2c(NC(=O)c3ccccc3)sc3c2CCCCC3)cc1
→ / | 0.58
- O=S(=O)(c1ccccc1)N1N=C(c2cccs2)CC1c1ccccc1O (centres undefined)
→ -0.15 | /
- Cc1ccc([N+](=O)[O-])cc1NC(=O)C(Cc1c[nH]c2ccccc12)NC(=O)OCc1ccccc1 (centres undefined)
→ / | 0.06
- CCCNC(=O)c1oc2ccc3c(c2c1C)C=CC(C)(C)O3
→ 0.2 | 6.7
- O=C(CCNc1ccc(Br)cc1)c1ccc2c(c1)OCO2
→ 1.6 | 0.51
- O=C(N/N=C/c1ccc(CO)o1)c1ccccc1CCc1ccccc1
→ / | -0.47
- CCc1ccc(Sc2c(N)c3c(c(N)c2Sc2ccc(CC)cc2)C(=O)c2ccccc2C3=O)cc1
→ / | -0.24
- COc1ccc2c(=S)c(-c3cc4ccccc4o3)c(C)oc2c1
→ 2.4 | -0.52
- O=C(Cn1ccc2ccccc2c1=O)NCCC(=O)N1CCCCC1
→ -1.8 | -0.39
- CC1(C)CC(N=CC2=C(O)c3ccccc3C2=O)CC(C)(C)N1
→ -0.8 | /
- COc1ccc(S(=O)(=O)N(C)C2CCCCC2)cc1C
→ 0.65 | 0.72
- Cn1c(C(=O)O)cc2ccccc21
→ 0.5 | -0.23
- CC(C)(C)c1ccc(/C=C/C(=O)Nc2cccnc2)cc1
→ 0.15 | -0.025
- CC(C)(C)CC(=O)Nc1ccc(-c2nnc3n2CCCCC3)cc1
→ 0.15 | /
- CCn1c(=O)oc2cc(Br)ccc21
→ -0.2 | -0.35
- COC(=O)c1c(NC(=O)c2ccc(OC)cc2)sc2c1CCN(C(C)C)C2
→ -0.5 | 29
- Cc1nn(-c2ccccc2)c(Cl)c1C(=O)NC1CCS(=O)(=O)C1 (centres undefined)
→ 0.45 | -0.12
- CCOc1cc(-c2nc3sc4c(c3c(=O)[nH]2)CCCC4)ccc1OCCOc1ccccc1C
→ / | 0.075
- CC1CN(S(=O)(=O)c2ccc(Cl)c(Cl)c2)CC(C)O1 (centres undefined)
→ / | 0.45
- FC(F)(F)c1cccc(CN2CCNCC2)c1
→ -0.2 | /
- CN(C)Cn1c2ccccc2c2ccccc21
→ -1.1 | 11
- O=C1c2ccccc2S(=O)(=O)NN1Cc1nnc(-c2ccccc2Br)o1
→ 0.45 | /
- O=C(Nc1ccc2c(c1)SC1=NCCN12)C(F)(F)F
→ -0.35 | -0.12
- NC(=O)COc1ccc(S(=O)(=O)c2ccc(OCC(N)=O)cc2)cc1
→ -0.95 | -0.06
- Cc1occc1C(=O)N/N=C/c1c[nH]c2ccccc12
→ -0.55 | -0.99
- CCc1ccc(OCC(O)CNC(C)(C)C)cc1 (centres undefined)
→ -0.25 | 0.14
- O=C(NCc1ccc(F)cc1)C1CC(=O)N(c2ccc(F)cc2)C1 (centres undefined)
→ -0.6 | 0.33
- Cc1ccc(NC2OC(=O)c3ccccc32)cc1C (centres undefined)
→ -0.95 | 0.015
- COc1ccc(C)cc1N(C)C(=O)c1nn(C)c2c1COc1ccccc1-2
→ -0.65 | -0.34
- COC(=O)CN1C(=O)S/C(=C/c2ccc(-c3ccc(C(=O)O)cc3)o2)C1=O
→ -0.8 | -1
- Cc1ccc(-c2nc3ccc(N4CCCC4)cc3c(=O)[nH]2)cc1
→ 0.1 | -0.59
- Cc1cc(C)c(S(=O)(=O)N2CCCC(C(=O)NC3CC3)C2)c(C)c1 (centres undefined)
→ 0.6 | 0.55
- CCC(Sc1nccn1C)C(=O)Nc1cc(C)on1 (centres undefined)
→ -0.15 | /
- Cc1ccc2nc(-c3ccccc3)c(-c3ccccc3)nc2c1
→ / | -0.2
- N#Cc1cc2c(=O)n3ccccc3nc2n(CC2CCCO2)c1=O (centres undefined)
→ 2.8 | 88
- CSC(=NC#N)N1CCN(c2ccc([N+](=O)[O-])cn2)CC1
→ / | -0.22
- CC(NC(=O)c1ccc2c(c1)OCCO2)C12CC3CC(CC(C3)C1)C2 (centres undefined)
→ / | -0.015
- Cc1ccc(C(=O)N2CCN(S(=O)(=O)c3ccc(S(C)(=O)=O)cc3)CC2)cc1
→ / | 0.15

Of the compounds above, 2 have a cyano group:
Values run as follows: AID504770 | CapD inh
- N#Cc1cc2c(=O)n3ccccc3nc2n(CC2CCCO2)c1=O (centres undefined)
→ 2.8 | 88
- CSC(=NC#N)N1CCN(c2ccc([N+](=O)[O-])cn2)CC1
→ / | -0.22

New compounds follow.
Values run as follows: AID504770 | CapD inh
- CSc1nc2ccc(NC(=O)C3CC(=O)N(Cc4ccco4)C3)cc2s1 (centres undefined)
→ -0.6 | /
- O=C(O)c1c[nH]c2ccc(S(=O)(=O)N3CCN(c4cccc(Cl)c4)CC3)cc2c1=O
→ / | 0.27
- CCOC(=O)c1[nH]c(C)c(C(=O)OCC)c1CC
→ -0.4 | -0.83
- CC1CCC(NC(=O)CN(C)S(=O)(=O)c2ccc3c(c2)CCC(=O)N3)CC1 (centres undefined)
→ -0.05 | -0.17
- Oc1c(C(c2ccc(C(F)(F)F)cc2)N2CCOCC2)ccc2cccnc12 (centres undefined)
→ 0 | /
- N#CCSc1nc2cc(Cl)ccc2n1Cc1ccccc1
→ 1.5 | /
- COc1ccc(N2CCN(S(=O)(=O)c3ccc(F)c(C(=O)Nc4cc(C)cc(C)c4)c3)CC2)cc1
→ / | 0.45
- CCCCC(=O)N1CC(=O)Nc2ccc(C)cc2C1c1ccc(F)cc1 (centres undefined)
→ 0.7 | /
- c1ccc2sc(CSc3nc4ccccc4s3)nc2c1
→ -0.45 | /
- COc1ccc(-c2cc(C(F)(F)F)n3ncc(C(=O)N4CCN(c5ccccc5OC)CC4)c3n2)cc1OC
→ / | 0.04
- COc1ccc(N2C(=O)NC(=O)C(Cc3ccc(OC)c(OC)c3)C2=O)cc1 (centres undefined)
→ -1.2 | 0.12
- CCN(C(=O)c1cnc2ccc(C)cn2c1=O)c1ccccc1
→ 0.05 | /
- CSc1cccc(NC(=O)c2ccc3c(c2)NC(=O)CS3)c1
→ 0.45 | /
- O=C(OCCN1CCCC1=O)c1ccccc1
→ 1.5 | -0.9
- CC(=O)OC1C2CCCC1C(N1CCCC1)CC2 (centres undefined)
→ 0.55 | 0.14
- CCS(=O)(=O)c1ccc2oc(=O)[nH]c2c1
→ -0.8 | 1.1
- Cc1cc(OCC(N)=O)c2c3c(c(=O)oc2c1)CCCC3
→ 1.2 | 10
- COCCN1Cc2cccc(C(=O)NCc3ccccn3)c2C1=O
→ 1.1 | -1.1
- COc1ccc2oc(=Nc3ccc(C(=O)O)cc3)c(C(=O)Nc3ccc(F)c(Cl)c3)cc2c1
→ / | 0.18
- COc1ccc(NC(=O)c2ccccc2NC(=O)c2cccc(S(=O)(=O)N3CCCCCC3)c2)cc1
→ / | -0.12

Following part
SMILES	AID504770	CapD inh
CCOC(=O)c1c(NC(=O)C(C)Oc2c(F)c(F)cc(F)c2F)sc(C(=O)N(CC)CC)c1C (centres undefined)	/	-1.1
Cc1ccc(S(=O)(=O)NNC(=O)c2cc3c(s2)-c2ccccc2CC3)cc1	/	85
CCn1cc(C(=O)N(C)C2CCCCC2)c2cc(OC)c(OC)cc2c1=O	1.2	-0.22
O=C(NC(=S)Nc1n[nH]c(C2CC2)c1N=Nc1ccc(Br)cc1)c1ccccc1	/	-1.4
CSc1ccccc1C(=O)NCc1cccnc1	-1.1	-0.41
O=C(NC(=S)NCc1ccccc1)c1ccco1	-0.8	/
COc1cc(C=C2C(=O)NC(=S)NC2=O)ccc1OCCOc1ccc(C(C)(C)C)cc1	/	-1.3
CCOC(=O)c1cc(-c2ccccc2)nn1CCC#N	0.25	0.29
COC(=O)C(Cc1cn(Cc2ccccc2)cn1)NC(=O)c1cc(=O)n(-c2ccccc2)[nH]1 (centres undefined)	/	-0.28
C=C1CC[C@H](O)C/C1=C/C=C1\CCC[C@]2(C)C([C@H](C)/C=C/[C@H](C)C(C)C)CC[C@@H]12 (some centres undefined)	0.15	0.32
CC1(C)CC(=O)C=C(SCC(=O)Nc2ccc(Cl)cc2)S1	0.55	-0.065
O=C(NC(Cc1c[nH]c2ccccc12)C(=O)Nc1ccc2ccccc2c1)c1ccc(-n2nc(-c3ccccc3)cc2-c2ccccc2)cc1 (centres undefined)	/	-0.48
COC(=O)CC1(C)NN=C(c2ccccc2)S1 (centres undefined)	0.9	-0.17
Cc1ccc(S(=O)(=O)Oc2ccccc2/C=C2\N=C(c3ccccc3)OC2=O)cc1	/	1
Cc1cccc(-n2nc3c(c2NC(=O)c2ccc(S(=O)(=O)N4CCCC4)cc2)CSC3)c1C	/	0.29
Cc1[nH]c2ccccc2c1C	-1	0.22
CCn1cc(Br)c(-c2nc3ccccc3c(=O)n2N)n1	0.7	0.23
O=c1nc(-c2ccccc2)c(-c2ccccc2)n[nH]1	/	-0.44&-0.61
CC(=O)Nc1cc2ccccc2oc1=O	-0.65	35&36&1.4
CCc1cccc(NC(=O)c2csc3c2CCCC3)c1	-0.2	0.28
CCOC(=O)CSc1nnc(-c2ccccc2C)n1CC	-0.85	0.68
CCCOCCOC(=O)C1=C(C)NC2=C(C(=O)CC(C)(C)C2)C1c1cc2c(cc1Br)OCO2 (centres undefined)	/	12
O=C(O)CCC(=O)NCC1COc2ccccc2O1 (centres undefined)	0.05	0.68
O=C(Nc1cc(Cl)ccc1N1CCOCC1)c1ccc2c(c1)S(=O)(=O)N=C1CCCCCN12	-0.8	/
CCNC(=O)/C(C#N)=C/C1=Cc2ccccc2OC1	-0.15	/
CNC(=S)N(Cc1ccccc1)Cc1ccccc1	-1.6	42
CNC(=S)N/N=C/c1ccc(OC)c(OC)c1	/	-1.3
CN1C(=S)N(C2CCCCC2)C(=O)/C1=C/c1ccc(N2CCCC2)cc1	-0.25	0.32
CCOC(=O)c1sc(SC)nc1N	-0.3	-2.2
O=C(O)CCCC(=O)Nc1ccc(-c2nc3ccccc3[nH]2)cc1	-0.35	66
ON1C2CCCCC2N(O)C1c1ccccc1 (centres undefined)	-0.3	-0.03
CCN(CC)c1cc(C)c2cc(NC(=O)/C(C)=C\c3ccccc3)ccc2n1	/	61
O=C(Cc1cccs1)N(c1nnc(-c2ccc(F)cc2)s1)C1CCCC1	-0.45	/
Cc1ccc(CC(=O)O)cc1	/	0.23
COc1ccc(Br)c(NC2=NCCS2)c1	-0.25	0.075
O=C(N/N=C/C1=C(N2CCOCC2)C(=C\c2ccccc2)/CC1)Nc1ccccc1	0.45	/
CCOc1ccc2c3c(c(=O)oc2c1OCC)CCCC3	-0.85	13
CCCn1c(=O)n(C)c(=O)c2c3nc4ccccc4c(-c4ccccc4)c3[nH]c21	0.1	/
O=C(Nc1ccccc1Br)N(C1=NCCS1)c1ccc(Cl)cc1	0.3	-0.23
CC(NC(=S)N1CCN(CCO)CC1)C12CC3CC(CC(C3)C1)C2 (centres undefined)	-0.7	-0.25
Cc1ccc(Nc2nc3nonc3nc2N/N=C/c2ccc(Cl)cc2Cl)cc1C	/	0.12
O=C(c1ccccc1)N(Cc1ccco1)c1nc(-c2ccccc2)cs1	0.45	/
C1=Nc2ccccc2-c2nnc(SCc3ccccc3)nc2O1	0.45	-1.5
Cc1cc(C(=O)Nc2ccc(N3CCCCC3)cc2)no1	0.35	-0.095
CCOC(=O)N1CCN(C(=O)Nc2sc3nc4n(c(=O)c3c2C)CCC(C)CC4)CC1 (centres undefined)	-0.85	0.17
CN(C)S(=O)(=O)c1ccc2oc(SCC(=O)O)nc2c1	0.5	/
C1CCC(NC2CCCC2)C1	-0.3	/
CC(C)C(=O)N1C2CCC1CC(O)(c1ccccc1F)C2 (centres undefined)	0	/
CCN(C(=O)c1ccc(N2CC3CC(C2)c2cccc(=O)n2C3)c(NC(=O)c2ccc(OC)cc2)c1)c1cccc(C)c1 (centres undefined)	/	-0.68
COc1ccc(/C=C2\SC(=S)N(CC3CCCO3)C2=O)cc1 (centres undefined)	2.4	2.2
CCC(CO)n1cnnc1-c1ccncc1 (centres undefined)	-1	-0.11
COC(=O)c1ccc(Cn2cc(S(=O)(=O)N3CCCC3)ccc2=O)o1	-0.2	/
COc1ccc(CCN2C(=O)c3ccccc3NC2c2ccc(N(C)C)cc2)cc1OC (centres undefined)	/	33
